Menin-MLL FL inh = qHTS Assay for Inhibitors Targeting the Menin-MLL Interaction in MLL Related Leukemias: Competition With Fluorescein Labeled MLL-derived Peptide; Fluorescence polarization, fluorescein-MLL peptide displacement from menin; FP activity change, % at 61.4 µM; 290,000 tested, under 10 active; inconclusive = falling polarisation curve, or a change in total fluorescence; inactive = total fluorescence flat and polarisation flat or rising; no compound was filed as active; the % refers to the polarisation; negative = inhibition;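 note: % of control where 0% means no effect; inhibitors lower the polarisation; unlabelled MLL peptide was the positive control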
PINK1 modulator = A Quantitative High throughput Screen to Identify Chemical Modulators of PINK1 Expression | PINK1 immunofluorescence, high-content cytometry, 24 h | Potency, µM (titrated, usually from 76.6 µM), for inactives: at the highest dose activation (PINK1 increase), hits mostly activators | hit rate 0.2% among 410,000; active = well fitted activation curve with a large enough effect; inconclusive = small, poorly fitted or top-dose-only effect; inactive = flat fitted curve, though single readings scatter; cell line not stated here;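 note: potency is the fitted concentration of half-maximal effect; % of control where 0% means no effect; nearly all actives have a fitted effect of over 65% in size; a mitochondrial uncoupler was the plate control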
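A stable cell line was treated with compounds at 5 concentrations for 24 hours, with CCCP as control. PINK1 levels and mitochondrial localization were measured by immunofluorescence with mitochondrial, cell and nuclear markers after fixation, read by laser-scanning cytometry.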
gsp agonist = qHTS for Agonist of gsp, the Etiologic Mutation Responsible for Fibrous Dysplasia/McCune-Albright Syndrome: qHTS; gsp mutant cells, cAMP HTRF, 30 min; control for the full effect not named in the record; hit rate 0.13% among 340,000; Potency, µM (series often up to 76.9 µM), for inactives: at the top dose activation (cAMP increase), actives largely listed as activators; active = well fitted activation curve with a large enough effect; inconclusive = small, poorly fitted or top-dose-only effect, or another doubt; inactive = no such curve, though single readings can be large or run the other way; cell line not stated here;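 note: phosphodiesterase inhibitor Ro 20-1724 added with compounds to block cAMP breakdown; potency is the fitted concentration of half-maximal effect; nearly all actives have a fitted effect of over 60% in size; about a fifth of the inactives were tested at one dose only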
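Cells in DMEM/10% FBS with G418 were pretreated with compounds in DMSO plus […] (300 uM stock) for 30 min at 37C. cAMP was measured by HTRF (cAMP-d2 plus anti-cAMP antibody-K) after 30 min at room temperature.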
gsp antagonist = qHTS for Antagonists of gsp, the Etiologic Mutation Responsible for Fibrous Dysplasia/McCune-Albright Syndrome: qHTS. gsp-mutant cells, cAMP HTRF, 30 min; control for the full effect not named in the record. Potency, µM (series often up to 76.9 µM), for the others: at the highest dose activity change, negative = inhibition, hits mostly inhibitors. hit rate 0.4% among 340,000. AID 624288, 2012; active = falling curve of any shape with a large fitted effect; inconclusive = falling curve, mostly with a smaller effect; inactive = flat or rising curve; cell line not stated here;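 note: intracellular cAMP measured with PDE inhibitor Ro 20-1724 present during compound exposure; potency is the fitted concentration of half-maximal effect; % is set by controls: 0 for no effect and ±100 for the full control effect; nearly all actives have a fitted effect of over 65% in size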
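Cells, 2000/well, grown 16–24 h in DMEM 10% FBS with 0.5 mg/ml G418, then compounds plus […] (300 uM addition stock), 30 min at 37C. cAMP read by HTRF (cAMP-d2 and anti-cAMP antibody-K in lysis buffer) after 30 min RT.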
ClpP mod = qHTS Assay for Activators of ClpP; purified B. subtilis ClpP, FRET peptide cleavage, 20 min; Potency, µM (highest dose often 57.5 µM), inactives show at the highest dose activity change, negative = active; ATP-dependent Clp protease proteolytic subunit (Bacillus subtilis (strain 168)), P80244; hit rate 1.9% among 340,000; active = well fitted falling curve with a large enough effect; inconclusive = small, poorly fitted or top-dose-only effect; inactive = no such curve, though single readings can be large or run the other way; note: potency is the fitted concentration of half-maximal effect; the source files actives as falling curves though it sought activators and does not explain the sign; nearly all actives have a fitted effect of over 65% in size; many hits overshoot -100%
Target sequence (P80244 whole entry, looked up): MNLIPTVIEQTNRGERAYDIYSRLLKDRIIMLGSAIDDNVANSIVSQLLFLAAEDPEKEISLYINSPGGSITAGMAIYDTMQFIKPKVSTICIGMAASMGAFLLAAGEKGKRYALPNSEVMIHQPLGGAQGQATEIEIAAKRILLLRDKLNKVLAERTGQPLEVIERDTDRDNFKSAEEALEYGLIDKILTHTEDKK
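FRET quenching reversal measured ClpP activation: 10 microg/mL B. subtilis ClpP at pH 8 with the FRET-FV decapeptide, read at 430 nm after 320 nm excitation. The 20-min minus 0-min signal was scaled between DMSO/no-enzyme wells and ADEP (5.8 microM final).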
D2 ag = Beta-Arrestin HTS for Positive Allosteric Modulators of the Human D2 Dopamine Receptor: Agonists. D(2) dopamine receptor (Homo sapiens), P14416. DiscoveRx PathHunter D2 beta-arrestin, luminescence, 90 min; 100% = 57 uM dopamine signal. activation, % (no concentration beside the values). hit rate 0.084% among 360,000; in the data active = activation above about 40%; inconclusive = about 15% to 40%; inactive = below about 15%; note: compound concentration not given in the record; the text of the record calls up to 30% inactive
Target sequence (P14416 whole entry, looked up): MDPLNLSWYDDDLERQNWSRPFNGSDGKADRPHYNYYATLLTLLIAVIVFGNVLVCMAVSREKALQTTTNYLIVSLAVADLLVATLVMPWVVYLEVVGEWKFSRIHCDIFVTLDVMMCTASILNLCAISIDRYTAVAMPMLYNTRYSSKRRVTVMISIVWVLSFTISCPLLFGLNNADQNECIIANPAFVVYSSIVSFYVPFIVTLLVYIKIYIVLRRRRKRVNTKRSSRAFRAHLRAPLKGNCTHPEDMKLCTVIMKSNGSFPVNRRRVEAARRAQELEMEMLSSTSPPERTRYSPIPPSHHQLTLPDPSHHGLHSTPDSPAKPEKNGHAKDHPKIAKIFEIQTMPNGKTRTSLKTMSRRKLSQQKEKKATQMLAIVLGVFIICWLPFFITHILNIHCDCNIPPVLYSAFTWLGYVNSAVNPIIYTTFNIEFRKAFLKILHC
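Agonist mode: compounds alone added to overnight-plated D2 PathHunter cells for 90 min at 37 C, with 57 uM final dopamine (EC100) defining full response. Beta-arrestin recruitment detected by chemiluminescent reagent, read after 1 h at ambient temperature.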
Sfp inh = qHTS Assay for Inhibitors of Bacillus subtilis Sfp phosphopantetheinyl transferase (PPTase). hit rate 3.5% among 310,000. Potency, µM, inactives show max response, negative = inhibition, hits mostly inhibitors. 4'-phosphopantetheinyl transferase ffp (Bacillus subtilis), Q9F4F7. Biochemical Sfp PPTase activity, qHTS; active = well fitted inhibition curve with a large enough effect; inconclusive = small, poorly fitted or top-dose-only effect, or another doubt; inactive = no such curve, though single readings can be large or run the other way;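 note: the enzyme is Sfp with the accession as filed and its product quenches rhodamine fluorescence; potency is the fitted concentration of half-maximal effect; 0% = enzyme reaction without inhibitor and -100% = no enzyme wells; top concentration of the series not given in the record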
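Sfp 15 nM + cpd, 15 min RT; start w/ rhodamine-CoA 5 uM, BHQ-2-YbbR 12.5 uM (final); 50 mM Hepes pH 7.6, 10 mM MgCl2, 0.01% NP-40, 0.01% BSA; read 525/598 nm at 0 and 30 min.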
* marks the source's active call; other numbers are inactive results; ? = inconclusive; . = not tested or not shown; [ ] = remark or other dose. This is a subset; rates above refer to the full screens.

The opening two compounds, ahead of the listing:
canonical_smiles,Menin-MLL FL inh,PINK1 modulator,gsp agonist,gsp antagonist,ClpP mod,D2 ag,Sfp inh
O=C(c1ccc(-c2ccccc2)cc1)C1CCCN(Cc2ccn[nH]2)C1 (configuration not stated),1.8,2.1%,-2%,8%,-0.3%,-5.3,7%
Cc1c(C)c2cc(Cl)c(OCC(=O)NCCCN3CCCC3=O)cc2oc1=O,.,1.7%,?,.,4.0%,-5.2,.

The listing, repeating the preview:
canonical_smiles,Menin-MLL FL inh,PINK1 modulator,gsp agonist,gsp antagonist,ClpP mod,D2 ag,Sfp inh
O=C(c1ccc(-c2ccccc2)cc1)C1CCCN(Cc2ccn[nH]2)C1 (configuration not stated),1.8,2.1%,-2%,8%,-0.3%,-5.3,7%
Cc1c(C)c2cc(Cl)c(OCC(=O)NCCCN3CCCC3=O)cc2oc1=O,.,1.7%,?,.,4.0%,-5.2,.
Cc1cc(O)c2c3c(c(=O)oc2c1)CCC(C)C3 (configuration not stated),2.8,19%,2%,-5%,-5.3%,-6.9,18%
CN1C(=O)N(C)C(=O)C2(Cc3cc([N+](=O)[O-])ccc3N(C)C2c2ccccc2)C1=O (configuration not stated),2.0,4.7%,-7%,7%,-0.7%,0.2,-1%
O=C(NCC(c1ccco1)N1CCCC1)c1cccc(S(=O)(=O)N2CCc3ccccc32)c1 (configuration not stated),.,-0.9%,-75%[inhibitor],.,-1.7%,-2.5,.
O=S(=O)(c1ccccc1)N1CCN2CCCC2C1 (configuration not stated),1.3,1.6%,-4%[15.4 µM],12%,-0.4%,4.0,13%
COC(=O)CC(=O)c1ccc2c(c1)OCO2,-3.7,-0.6%,20%,14%,-5.0%,-2.2,6%
Cc1ccc(N2C(=O)NC(=O)/C(=C\C=C\c3ccco3)C2=O)cc1C,?,-0.4%,3%[15.4 µM],-4%,-1.0%,-3.1,-71%
COc1ccc(C2CN(C)CC2C(=O)c2ccc(C)cc2)cc1Cl (configuration not stated),-1.2,5.8%,-7%[15.4 µM],10%,.,-3.1,13%
CCOC(=O)c1ccc(COC(=O)c2ccc(-c3nnc(-c4ccccc4)o3)cc2)o1,.,5.8%,12%,-9%[15.4 µM],?,-3.0,.
CC1=CC(O)C(O)C2(C)C1CC1OC(=O)C(O)C3C(C)C(O)C4(O)OCC13C42 (configuration not stated),.,-5.6%,15%,11%,0.5%,-0.1,.
Cc1cccc(OCC(=O)N2CCN(Cc3ccc([N+](=O)[O-])cc3)CC2)c1,-3.5,0.6%,0%,-5%,-0.1%,-1.8,12%
CN1CCN(c2ccccc2N)CC1,0.5,-0.5%,-20%,5%,1.1%,-0.2,-11%
C[C@]12CCC3C(CC[C@@H]4C[C@@H](O)CC[C@]34C)C1CC[C@@H]2O (some centres not stated),.,-0.2%,13%[15.4 µM],12%,0.1%,-7.2,.
CCOC(=O)CC1=C(C(=O)OCC)C2(C(=O)N1)C(C(=O)OC)=C(N)Oc1ccccc12 (configuration not stated),-0.9,-4.8%,-28%,4%,-3.4%,6.2,17%
COC(=O)C1=C(c2ccc(F)cc2F)C[C@@H]2CC[C@H]1N2C(=O)NCCOc1ccccc1Cl,.,12%,15%,-14%,-0.8%,1.4,.
CN(C)C(=O)Oc1ccc(-c2cn3cc(Cl)ccc3n2)cc1,0.1,0.6%,5%,-29%,?,-1.1,19%
Cc1cc(C)c(NC2=NCCCS2)c(C)c1,-1.9,-0.7%,-41%[inhibitor],7%,-1.7%,1.4,-10%
O=C1NC(=O)C(CCOc2ccccc2)(CCc2ccccc2)C(=O)N1,.,3.0%,0%,3%,.,0.1,.
O=[N+]([O-])c1ccc(NCCCN2CCOCC2)c2ncccc12,4.0,0.5%,-30%,7%,0.1%,2.6,12%
C=C(C)C(Cc1c(OC)ccc(C(=O)/C=C/c2ccc(O)cc2)c1O)OO (configuration not stated),.,-0.5%,.,25µM*,-0.3%,4.3,.
Fc1ccccc1CN1Cc2ccccc2-n2nncc2C1,.,1.5%,5%,.,-0.5%,-7.3,.
CCCCCCOC(=O)c1ccccc1N,-0.9,1.5%,10%,-4%,22µM*,-4.0,11%
N#Cc1ccc(Cn2cc(C=O)c3ccccc32)cc1,0.2,3.0%,-27%,6%,-2.0%,-4.4,7%
O=C1NC(=O)C2C1C1(Cl)C(Cl)=C(Cl)C2(Cl)C1(Cl)Cl (configuration not stated),.,0.2%,9%,-3%,.,-0.9,.
C=CCn1c(O)c(Cc2ccc(OCC)cc2)c(=O)[nH]c1=O,1.6,0.7%,0%,3%,.,0.6,0%
CC1SC2(CN3CCC2CC3)NC1=O (configuration not stated),-1.1,-0.9%,-4%,7%,-2.9%,-1.6,-5%
O=C1CN(C(=O)COC(=O)Cc2ccccc2)c2ccccc2N1,-5.1,-2.5%,2%,-3%,-1.0%,8.1,5%
CCOC(=O)c1c(C)c(C(=O)N2CCC3(CC2)OCCO3)c(C)n1CC,3.8,-6.9%[38.3 µM],2%,0%,-4.0%,-1.5,-3%
CCC(C)N1C(=O)/C(=C\c2ccc(N3CCCCCC3)cc2)C(=O)NC1=S (configuration not stated),28,-0.9%,1%[15.4 µM],12%,-2.8%,-2.2,?

Other records
canonical_smiles,Menin-MLL FL inh,PINK1 modulator,gsp agonist,gsp antagonist,ClpP mod,D2 ag,Sfp inh
CCN1CCN(C(=O)COc2ccc3c(c2)C(=O)CC2(CCN(C(C)=O)CC2)O3)CC1,2.7,3.1%,23%,6%,32µM*,-2.9,-9%
CCC(c1ccc(C)cc1)N1C(=O)C2C3CCC(O3)C2C1=O (configuration not stated),.,0.2%,-39%[inhibitor],5%,-3.6%,-1.8,.
C=CCN1C(=O)/C(=C/c2cc(C)n(-c3ccccn3)c2C)C(=O)NC1=S,.,12%,-25%,-16%,1.1%,-2.7,?
CC(CC(C#N)(c1ccccc1)c1ccccc1)N1CCOCC1 (configuration not stated),.,0.3%,-36%[inhibitor],2%,.,0.4,.
c1ccc2[nH]c(CCN3CCCCC3)nc2c1,.,1.2%,-58%[inhibitor],.,-11%,-2.7,.
COc1ccc(-n2c(/C=C/c3cccc(F)c3)nc3ccccc3c2=O)c(OC)c1,-4.6,5.7%,-30%[inhibitor],8%,0.1%,3.1,-9%
CCOP(=O)(OCC)c1cc(C)c(O)c(C(C)(C)C)c1,1.4,5.0%,14%,10%,-0.3%,-3.5,17%
CC(Cc1ccccc1)NC(N)=O (configuration not stated),-4.3,1.2%,?,13%,.,-2.7,15%
CCC(=NCc1ccc2c(c1)OCO2)c1c(O)n(C)c(=O)n(C)c1=O,2.5,-0.4%,26%,-24%,-1.8%,1.3,9%
CC(C)CN1CCN(Cc2ccc(F)cc2Cl)CC1CCO (configuration not stated),-1.7,-1.5%,17%,6%,-1.2%,-2.2,5%
CC(C)c1ccc(NC(=O)CSc2nnc(OC(=O)N(C)C)n2C2CC2)cc1,.,-0.9%,4%,2%,0.9%,-1.0,3%
O=[N+]([O-])c1cnc2ccc3ccccc3c2c1,1.9,0.3%,-3%[15.4 µM],-6%,.,0.5,8%
CCCc1cc(=O)oc2cc(OCC(=O)N3CCN(Cc4ccc5c(c4)OCO5)CC3)ccc12,.,-0.6%,?,-13%,3.6%,3.1,-2%
COC(=O)C1=C(c2c(C)noc2C)C[C@@H]2CC[C@H]1N2C(=O)NCCOc1ccccc1,.,-0.1%,-26%,-1%,-0.9%,-3.7,.
COC(=O)[C@@H](NC(=O)c1cc(COc2cncc(Cl)c2)on1)c1ccccc1,.,-1.8%,-72%[inhibitor],-25%,-0.2%,-2.9,4%
O=C(O)C(O)(c1ccc(Cl)cc1)C1(O)CCCC1 (configuration not stated),.,-0.4%,7%,.,-1.8%,1.6,.
CCC1(C(=O)c2ccccc2)C2c3ccccc3OC(=O)C21C(C)=O (configuration not stated),5.1,2.8%,-11%,6%,.,-4.0,4%
Cc1ccc(NC(=O)c2snnc2C)cc1Cl,0.3,0.2%,21%,4%,.,-0.8,12%
Cn1c(=O)oc2cc(S(=O)(=O)N3CCCc4ccccc43)ccc21,2.0,6.2%,-41%[inhibitor],4%,-1.1%,1.8,-8%
COC(=O)C1=C(c2cc3ccccc3s2)C[C@@H]2CC[C@H]1N2C(=O)NCCO,.,1.2%,.,3%,-2.8%,-3.5,.

Part of the list above with just gsp antagonist, D2 ag and PINK1 modulator:
| SMILES | gsp antagonist | D2 ag | PINK1 modulator |
| --- | --- | --- | --- |
| CCCc1cc(=O)oc2cc(OCC(=O)N3CCN(Cc4ccc5c(c4)OCO5)CC3)ccc12 | -13% | 3.1 | -0.6% |
| Cn1c(=O)oc2cc(S(=O)(=O)N3CCCc4ccccc43)ccc21 | 4% | 1.8 | 6.2% |

High-throughput results from PubChem BioAssay.
